Assay outcomes deposited in PubChem by National Center for Advancing Translational Sciences (NCATS).
Vaccinia Venus: vaccinia inhibition (Venus reporter) | Potency, µM (doses to about 36.5 µM), for inactives: at the highest dose activity change, negative = inhibition, hits mostly inhibitors | actives 0.46% (n = 330,000) | Vaccinia virus Venus reporter expression, fluorescence; active means well fitted inhibition curve with a large enough effect; inconclusive means small, poorly fitted or top-dose-only effect; inactive means no such curve, though single readings can be large or run the other way; tested in A549 cells; further: nearly all actives have a fitted effect of over 30% in size; inactives centre near -10
Vaccinia mCherry: inhibitors of vaccinia virus infection (mCherry reporter signal); Vaccinia virus mCherry reporter infection, fluorescence; about a quarter of the inactives have no number; Potency, µM (highest dose often 36.5 µM), inactives show at the top dose activity change, negative = inhibition, usual class: inhibitors; actives 0.63% (n = 310,000); active = well fitted inhibition curve with a large enough effect; inconclusive = small, poorly fitted or top-dose-only effect; inactive = no such curve, though single readings can be large or run the other way; tested in A549 cells; further: nearly all actives have a fitted effect of over 35% in size; inactives centre near -10
An asterisk follows results filed as active; i = inactive; ? = inconclusive; / = no result given; & = joins results of further samples; [ ] = another dose, or the depositor's remark. On the % scale 0 is the no-effect control and ±100 the full control effect; potency means the concentration at half of the fitted maximal effect.

Values in the order: Vaccinia mCherry, Vaccinia Venus
1) Cc1cccc(CN2C(=O)c3ccccc3S(=O)(=O)c3ccc(C(=O)NC4CCCCC4)cc32)c1
    -9%, -10%
2) O=C1CC(Sc2nnnn2-c2ccccc2)C(=O)N1c1cccc(Cl)c1 (stereo not given)
    /, -1%
3) COc1ccc(NC(=O)Cn2c(=O)n(-c3cccc(C)c3)c(=O)c3c2c2cc(C)ccc2n3C)cc1OC
    -26%, -6%
4) O=C(NCc1ccccc1)C1COc2ccccc2O1 (stereo not given)
    -13%, -6%
5) O=C(Nc1ncnc2c1CCC2)C12CC3CC(CC(C3)C1)C2
    -7%, -12%
6) COc1ccc(/C=C2\S/C(=N/S(=O)(=O)c3cccs3)NC2=O)cc1
    1%, 0%
7) COc1cccc(NC(=O)CSc2c(C)cnc3c2c(=O)n(C)c(=O)n3C)c1
    -3%, -7%
8) CC(CC(=O)N1CCN(c2ccccc2)CC1)S(=O)(=O)c1ccc2c(c1)NC(=O)CS2 (stereo not given)
    -19%, -17%
9) CN(C)/C(=N\S(=O)(=O)c1ccccc1)c1ccccc1
    i, 0%
10) COC(=O)c1sc(NC(=O)OCc2ccccc2)nc1CCNC(=O)OC(C)(C)C
    -2%, 12%
11) COc1ccc(N2CC(NC(=O)NC(C)(C)C)CC2=O)cc1 (stereo not given)
    -19%, -7%
12) O=[N+]([O-])c1ccc(SNc2ccccc2)c([N+](=O)[O-])c1
    -4%, -13%
13) CCCNS(=O)(=O)c1ccc(CCC(=O)N2CCN(c3ccc(OC)cc3)CC2)cc1
    ?, -16%
14) O=C(/C=C/c1ccc(-c2ccccc2[N+](=O)[O-])o1)c1ccc(F)cc1
    i, -4%
15) CCC(CC)C(=O)Nc1ccc(C(=O)OCc2cc(=O)n3nc(C4CC4)sc3n2)cc1
    -20%, 12%
16) CC(=O)Nc1ccc(NS(=O)(=O)c2cn(C)c(=O)n(C)c2=O)cc1
    -12%, -14%
17) Cc1cccc(C)c1NC(=O)C1c2ccccc2OCC(=O)N1C1CC1 (stereo not given)
    -10%, 4%
18) COc1cc(-c2nc(CN(C)C(C)c3ccncn3)c(C)o2)ccc1F (stereo not given)
    -10%, -12%
19) O=C(CN(c1cccc(C(F)(F)F)c1)S(=O)(=O)c1ccccc1)Nc1cccc(Cl)c1
    ?, ?
20) Cc1cccc(-c2nc(C#N)c(N3CCCCCC3)o2)c1
    i, -13%
21) Cc1ccc(S(=O)(=O)N2CCC(O)(c3cccnc3)CC2)cc1
    i, -5%
22) COc1cccc(CNC(=O)CCc2nnc(C3CCCCC3)o2)c1
    -14%, -11%
23) O=C(Cn1ncc2ccsc2c1=O)N1CCN(c2ccc(Cl)cc2)CC1
    -10%, 6%
24) CC(Cc1ccccc1)NC(=O)C1(c2ccccc2)CCOCC1 (stereo not given)
    -8%, -9%
25) O=C1CCC(c2ccc(-n3ccnc3)cc2)=NN1
    i, -8%
26) COc1ccc(CNC(=O)CSc2c3c(nc4ccc(Cl)cc24)CCCC3)cc1
    -6%, -10%
27) O=C1CCC(c2ccccc2)=NN1
    -10%, -13%
28) COc1ccc(C2C(CC(=O)O)=C(O)C(=O)N2c2ccccc2)cc1 (stereo not given)
    /, 0%
29) CCOc1ccc(-c2cc(CCCC(=O)NCc3ccco3)no2)cc1
    i, -25%
30) Cc1cccn2c(CNCCCOc3cccnc3)c(C(=O)N3CCOCC3)nc12
    -10%, 0%
31) COc1cccc(CNC(=O)Cn2nc(-c3ccc(Cl)cc3)ccc2=O)c1
    4%, 7%&-13%
32) O=C(COC(=O)Cc1ccccc1F)Nc1ccc2c(c1)OCO2
    6%, -2%
33) O=C(c1ccc(Cl)cc1)N1CCN(c2cccc3[nH]ccc23)CC1
    -2%, -21%
34) Cc1ccccc1-c1nnc(SCC(=O)N(C)c2c(N)n(Cc3ccccc3)c(=O)[nH]c2=O)n1C
    i, -11%
35) O=c1oc2ccc(Cl)cc2cc1-c1cn2c(n1)sc1ccccc12
    -16%, -14%
36) COc1cc(NC(=O)c2cccs2)c(C(=O)OCC(=O)c2cc(C)n(-c3ccccc3)c2C)cc1OC
    -17%, -2%
37) O=C(Cc1csc(NC(=O)c2ccccc2)n1)NO
    -13%, -6%
38) COc1cccc(CNC(=O)C2CCCN(S(=O)(=O)c3ccc4c(ccn4C)c3)C2)c1 (stereo not given)
    -17%, -14%
39) O=NN(Cc1cccnc1)C(=O)NC1CCCCC1
    8%, -8%
40) NC(=O)CSc1nnc(C2CC2)n1Cc1ccccc1
    -5%, 5%
41) Cc1ccccc1C(=O)NCc1ccc2c(c1)CCN2C(=O)c1ccccc1
    -23%, ?
42) CCCCc1ccc(NC(=O)Cn2cnc3c(oc4ccccc43)c2=O)cc1
    -1%, 4%
43) CC1CN(C(=O)N2CCC(C(=O)NCc3cccs3)CC2)c2cc(Cl)ccc2O1 (stereo not given)
    -8%, -15%
44) CCc1ccc(/C=N/NC(=O)c2cc(C3CC3)nc3ccccc23)s1
    ?, ?
45) CCCCN(CC)C(=S)Nc1ccc2nc3n(c(=O)c2c1)CCCCC3
    47%[activator], -21%
46) CN1Cc2ccccc2-n2nncc2C1
    i, -3%
47) O=C(c1cc(Cl)nc2ccccc12)N1CCN(S(=O)(=O)c2ccccc2[N+](=O)[O-])CC1
    -11%, -19%
48) COC(=O)C1=C(c2ccccc2OCc2ccccc2)C[C@@H]2CC[C@H]1N2C(=O)NCc1ccc(F)cc1
    0%, ?
49) CCCn1c(=O)c2sccc2n2c(CCCC(=O)Nc3ccc(Oc4ccccc4)cc3)nnc12
    -19%, -9%
50) CCOC(=O)C1CCCN(C(=O)c2cccc(S(=O)(=O)N(C)c3ccc(OC)cc3)c2)C1 (stereo not given)
    -4%, -2%
51) COc1cccc(/C=C2\SC(=S)N(CCCC(=O)Nc3ccc(C(=O)O)cc3)C2=O)c1
    0%, 17%
52) CC(NCC(=O)Nc1ccccc1C(=O)NC1CC1)c1ccccc1Cl (stereo not given)
    -6%, -8%
53) Cc1ccc(N2CCN(S(=O)(=O)N(C)C)CC2)cc1C
    -13%, -5%
54) Cc1cc(C)cc(OCC(=O)N2CCCCCC2)c1
    -4%, -2%
55) Cc1ccc(C(=O)N2CCN(c3cc4c(cc3[N+](=O)[O-])n(C)c(=O)n4C)CC2)cc1
    -2%, -11%
56) Cc1ccc(-c2nnc(Cc3ccc(Cl)cc3)o2)cc1
    -14%, -11%
57) COc1ccc(C(c2nnnn2C2CCCC2)N2CCC(C)CC2)cc1 (stereo not given)
    /, -6%
58) O=C(O)CCC(=O)N1CCN(S(=O)(=O)c2ccc3ccccc3c2)CC1
    4%, -10%
59) COc1ccccc1C(=O)NC(CCSC)C(=O)N1CCC(Cc2ccccc2)CC1 (stereo not given)
    -13%, -5%
60) CCCCn1c(N)c(N(CC(C)C)C(=O)c2cc(S(=O)(=O)N3CCCCC3)ccc2C)c(=O)[nH]c1=O
    -8%, -8%

3 structures from above, ordered by formula weight, lowest first.
Values in the order: Vaccinia mCherry, Vaccinia Venus
46) CN1Cc2ccccc2-n2nncc2C1
    i, -3%
39) O=NN(Cc1cccnc1)C(=O)NC1CCCCC1
    8%, -8%
59) COc1ccccc1C(=O)NC(CCSC)C(=O)N1CCC(Cc2ccccc2)CC1 (stereo not given)
    -13%, -5%

Record cards (already shown).
Listed for Cc1ccccc1C(=O)NCc1ccc2c(c1)CCN2C(=O)c1ccccc1 = Vaccinia mCherry = -23%; Vaccinia Venus = ?
Listed for CC(Cc1ccccc1)NC(=O)C1(c2ccccc2)CCOCC1 (stereo not given) = Vaccinia mCherry = -8%; Vaccinia Venus = -9%

(cont.)
Values in the order: Vaccinia mCherry, Vaccinia Venus
61) CC(=O)c1cnc2c(-c3cccc(Br)c3)cnn2c1C
    -13%, -11%
62) Cc1nc(N)ncc1C(=O)Nc1ccccc1
    -27%, 2%
63) CC1CCC2(CC1)NC(=O)N(CC(=O)Nc1ccc3c(c1)OCCO3)C2=O (stereo not given)
    i, -9%
64) O=C(CNC(=S)N(CCCN1CCOCC1)Cc1cccs1)NC1CCCCCCC1
    -12%, -23%
65) COc1ccc(C(=O)N2CCCC(c3nc(-c4ccc(C)o4)no3)C2)cc1OC (stereo not given)
    4%, 4%
66) CCCCN(C)C(=O)c1ccc2c(=O)n3nc(Nc4cc(C)ccc4C)sc3nc2c1
    ?, -20%
67) COCCN(C(=O)CCc1ccc(OC)cc1)c1nnc(-c2ccncc2)s1
    -10%, -7%
68) CCc1ccc(NC(=S)Nc2ccc3cn[nH]c3c2)cc1
    -18%, -1%
69) CCOc1cccc2sc(N3CCN(C(=O)C(C)(C)C)CC3)nc12
    i, -8%
70) O=C(Nc1ccccc1)c1cc(S(=O)(=O)N2CCOCC2)cs1
    -20%, -12%
71) CCC1CCc2nc3sc(C(=O)Nc4cccc(F)c4)c(N)c3cc2C1 (stereo not given)
    -26%, -18%
72) Cc1nc2ccccc2c(=O)n1NC(=O)c1ccc([N+](=O)[O-])cc1
    -15%, -14%
73) CCOC(=O)Cc1ccc(NC(=O)N(Cc2ccc(OC)cc2)C2CCN(C(C)=O)CC2)cc1
    3%, -2%
74) CCNC(=O)N(CCOC)CC1CCCN(C2Cc3ccccc3C2)C1 (stereo not given)
    -4%, -6%
75) Cc1ccc(NC(=O)/C(Cl)=C/c2ccccc2)cc1C
    i, -10%
76) O=C(COC(=O)/C=C/c1cccc(F)c1)NC1CCCCCC1
    -14%, -11%
77) O=C(NCc1cccc(OC(F)(F)F)c1)c1cccc2c1C(=O)c1ccc(-c3ccc(F)cc3OCc3ccccc3)cc1S2(=O)=O
    i, -8%
78) COc1cc(CN2CCCC(C(=O)c3ccc(C(C)(C)C)cc3)C2)cc(OC)c1O (stereo not given)
    ?, -21%
79) CC(=O)c1ccc(N2CCN(C(=S)Nc3cc(C)ccc3C)CC2)cc1
    -7%, -27%
80) CC1CC(C)CN(S(=O)(=O)c2ccc(Oc3ccc([N+](=O)[O-])cc3)cc2)C1 (stereo not given)
    -9%, -3%
81) C[C@@H]1COc2cccc(N3CCSCC3)c2S(=O)(=O)N1
    18%, 1%
82) CC(=O)c1ccc(Nc2cnn(C34CC5CC(CC(CC(=O)O)(C5)C3)C4)c(=O)c2Cl)cc1
    6%, -11%
83) CN(C)/C=C/C(=O)c1ccc(S(=O)(=O)c2ccccc2)cc1
    -3%, -5%
84) CCOC(=O)CNC(=O)Cc1ccc(OC)cc1
    i, -9%
85) COc1ccc(NS(=O)(=O)c2cc3[nH]c(=O)c(=O)[nH]c3cc2C)cc1OC
    -10%, -6%
86) COc1ccc(-c2ccc(=O)[nH]n2)cc1
    -13%, -9%
87) Cc1ccc(C)c(S(=O)(=O)N2CCC(c3nc4c(nnn4Cc4ccc(F)cc4)c(=O)[nH]3)CC2)c1
    /, -22%
88) COCCNc1nc(NCCN2CCNC2=O)c2sc(-c3ccccc3)cc2n1
    -17%, -13%
89) CCN1C(=O)CC(NCc2ccc3c(c2)OCO3)C1=O (stereo not given)
    -6%, -3%
90) CCCCC(=O)OCC(=O)Nc1ccc(C)c(F)c1
    -13%, -13%
91) COc1ccc(NC(=O)C2Cc3c(-c4cccc(C(N)=O)c4)ccnc3O2)cn1 (stereo not given)
    3%, -10%
92) Cc1cc(C)nc(N2CCC(CNC(=O)CCc3ccccc3)CC2)n1
    -21%, -18%
93) C[N+]1(CCOS(=O)C23CC4CC(CC(C4)C2)C3)CCOCC1 (stereo not given)
    i, -7%
94) CCC(C(=O)NC1CCCCC1)N(C(=O)c1snc(C(N)=O)c1N)c1ccc(OC)cc1OC (stereo not given)
    -23%, -9%
95) O=C(CSc1cn(CCNC(=O)c2cccs2)c2ccccc12)NC1CCCC1
    i, -10%
96) CC(=O)c1cccc(NC(=O)C(Sc2ncnc3ccccc23)c2ccccc2)c1 (stereo not given)
    -24%, -5%
97) Cc1cccc(N(CC(O)CON=C2c3ccccc3-c3ccccc32)S(C)(=O)=O)c1 (stereo not given)
    ?, ?
98) COc1ccc(C(C(=O)NCC2CCCO2)N(C(=O)Cn2nnc3ccccc32)c2ccc(NC(C)=O)cc2)c(OC)c1 (stereo not given)
    -8%, 3%
99) Cc1ccc(C(=O)C2=C(O)C(=O)N(Cc3cccnc3)C2c2ccc(N(C)C)cc2)o1 (stereo not given)
    i, -5%
100) COc1ccc(OCc2n[nH]c(=S)o2)cc1
    /, ?
101) COC(=O)CSc1nnc(C2COc3ccccc3O2)n1-c1ccccc1 (stereo not given)
    i, -8%
102) O=C(C[n+]1cn(C(F)F)c2ccccc21)c1ccc(OC(F)F)cc1
    -13%, -3%
103) COc1cc(C2C(C(C)=O)=C(O)C(=O)N2c2ccc(C)cc2)ccc1O (stereo not given)
    /, -7%
104) CCOC(=O)c1c(C)nc2c(C#N)cnn2c1C
    /, 17%
105) O=C(Cc1ccccc1[N+](=O)[O-])Nc1ccccc1C(=O)N1CCOCC1
    -2%, -10%
106) O=S1(=O)C=C[C@H](COCc2ccccc2)N1
    43%[activator], -3%
107) COc1ccc(-c2cc(C(=O)NCC(C)C)no2)cc1
    -2%, -8%
108) Cc1csc(N(C(=O)Cc2ccccc2F)c2ccccc2)n1
    -16%, -13%
109) CC(C)C(c1nnnn1CC1CCCO1)N1CCN(Cc2ccc3c(c2)OCO3)CC1 (stereo not given)
    /, -13%
110) COc1ccc2c(Sc3ccccc3)c(C(=O)NCc3cccc(OC)c3OC)[nH]c2c1
    -26%, -22%

The order is random. About 0.82% of those tested had a hit in this group.
